gsp antagonist: gsp mutant antagonism | gsp-mutant cells, cAMP HTRF, 30 min; control for the full effect not named in the record | Potency, µM (top dose mostly 76.9 µM), for the others: top-dose activity change, negative = inhibition, hits mostly inhibitors | hit rate 0.4% among 340,000; active = falling curve of any shape with a large fitted effect; inconclusive = falling curve, mostly with a smaller effect; inactive = flat or rising curve; cell line not stated here;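 also: intracellular cAMP measured with PDE inhibitor Ro 20-1724 present during compound exposure; potency is read from the fitted curve at half-maximal effect; % is scaled to controls: 0 for no effect and ±100 for the full control effect; nearly all actives have a fitted effect of over 65% in size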
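HTRF cAMP read-out (cAMP-d2 plus anti-cAMP antibody-K in lysis buffer, 30 min RT). Before lysis, cells are exposed to compounds with […] for 30 min at 37C in DPBS containing Ca/Mg, BSA and Tween 20.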
gsp ag: gsp mutant agonism | gsp mutant cells, cAMP HTRF, 30 min; control for the full effect not named in the record | AID 624287 | Potency, µM (titrated, usually from 76.9 µM), for the others: top-dose activation (cAMP increase), actives largely listed as activators | hit rate 0.13% among 340,000; active = well fitted activation curve with a large enough effect; inconclusive = small, poorly fitted or top-dose-only effect, or another doubt; inactive = no such curve, though single readings can be large or run the other way; cell line not stated here;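 also: phosphodiesterase inhibitor Ro 20-1724 added with compounds to block cAMP breakdown; potency is read from the fitted curve at half-maximal effect; nearly all actives have a fitted effect of over 60% in size; about a fifth of the inactives were tested at one dose only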
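Cells in DMEM/10% FBS with G418 were pretreated with compounds in DMSO plus […] (300 uM stock) for 30 min at 37C. cAMP was measured by HTRF (cAMP-d2 plus anti-cAMP antibody-K) after 30 min at room temperature.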
TRPML1 inh: blocks the human TRPML1 channel; Q9GZU1; TRPML1-inducible cells, Ca2+ dye fluorescence, FDSS; hits give low values; inhibition of EC80 agonist-evoked calcium signal; activity change, negative = inhibition, % (concentration not given with the values); hit rate 0.02% among 390,000; AID 624415; in the data active means activity change below about -50%; inconclusive means about -30% to -50%; inactive means above about -30%;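 also: stimulus is agonist 54-4 at its EC80 concentration; % is scaled to controls: 0 for no effect and ±100 for the full control effect; compound concentration not given in the record; the text of the record puts the active cut at -80%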
Target sequence (Q9GZU1 whole entry, looked up): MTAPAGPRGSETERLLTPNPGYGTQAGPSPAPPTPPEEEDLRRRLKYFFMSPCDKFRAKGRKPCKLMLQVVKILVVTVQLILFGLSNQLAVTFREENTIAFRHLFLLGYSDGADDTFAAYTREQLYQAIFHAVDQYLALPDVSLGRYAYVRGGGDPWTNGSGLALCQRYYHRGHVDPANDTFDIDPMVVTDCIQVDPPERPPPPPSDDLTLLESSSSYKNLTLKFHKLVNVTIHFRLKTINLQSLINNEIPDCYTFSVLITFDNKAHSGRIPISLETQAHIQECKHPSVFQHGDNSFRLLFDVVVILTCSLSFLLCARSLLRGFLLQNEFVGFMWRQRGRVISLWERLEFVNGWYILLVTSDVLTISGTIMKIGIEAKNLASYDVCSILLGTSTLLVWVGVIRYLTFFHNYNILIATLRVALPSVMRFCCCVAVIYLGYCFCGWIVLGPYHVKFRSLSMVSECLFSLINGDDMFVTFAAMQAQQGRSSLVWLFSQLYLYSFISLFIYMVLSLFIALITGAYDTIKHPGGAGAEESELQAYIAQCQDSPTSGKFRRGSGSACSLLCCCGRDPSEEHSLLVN
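Calcium fluorescence in TRPML1-DL cells induced overnight with Tet: a 110 s read after compound pin addition, then a 110 s antagonist read after challenge with 54-4 at 4 uM final (EC80).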
TRPML1 agonist: activates the human TRPML1 channel; Q9GZU1; TRPML1-expressing cells, Ca2+ dye fluorescence, FDSS; host cell line not named in the record; reference of the full effect not given here; activation, % (concentration not given with the values); hit rate 0.12% among 410,000; AID 624414; in the data active = activation above about 50%; inconclusive = about 30% to 50%; inactive = below about 30%; also: 0% is about no effect; the text of the record puts the active cut at 80%
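In this qHTS format, compounds were pin-transferred onto Ca8-dye-loaded TRPML1-DL cells induced with Tet overnight, and intracellular Ca2+ fluorescence was recorded kinetically for 110 s after a 10 s baseline. A subsequent 4uM final 54-4 (EC80) addition followed by a second 110 s read served as the antagonist phase.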
Menin MLL FP FL: displaces fluorescein MLL peptide from human menin; Fluorescence polarization, fluorescein-MLL peptide displacement from menin; FP activity change, % at 61.4 µM; 290,000 tested, under 10 active; AID 1766; inconclusive = falling polarisation curve, or a change in total fluorescence; inactive = total fluorescence flat and polarisation flat or rising; no compound was filed as active; the % refers to the polarisation; negative = inhibition;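 also: % of control where 0% means no effect; inhibitors lower the polarisation; unlabelled MLL peptide was the positive control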
ClpP mod: qHTS Assay for Activators of ClpP; hit rate 1.9% among 340,000; Potency, µM (doses to about 57.5 µM), inactives show at the top dose activity change, negative = active; purified B. subtilis ClpP, FRET peptide cleavage, 20 min; active = well fitted falling curve with a large enough effect; inconclusive = small, poorly fitted or top-dose-only effect; inactive = no such curve, though single readings can be large or run the other way; also: potency is read from the fitted curve at half-maximal effect; the source files actives as falling curves though it sought activators and does not explain the sign; nearly all actives have a fitted effect of over 65% in size; many hits overshoot -100%
Target sequence (P80244 whole entry, looked up): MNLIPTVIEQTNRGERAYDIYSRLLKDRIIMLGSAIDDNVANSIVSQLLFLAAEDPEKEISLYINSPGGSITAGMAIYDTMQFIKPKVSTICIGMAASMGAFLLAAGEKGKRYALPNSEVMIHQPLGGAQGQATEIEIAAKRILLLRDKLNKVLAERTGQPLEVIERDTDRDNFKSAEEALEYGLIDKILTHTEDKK
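FRET quenching reversal measured ClpP activation: 10 microg/mL B. subtilis ClpP at pH 8 with the FRET-FV decapeptide, read at 430 nm after 320 nm excitation. The 20-min minus 0-min signal was scaled between DMSO/no-enzyme wells and ADEP (5.8 microM final).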
Active calls of the source: *; ? = inconclusive; · = no result given; [ ] = remark or other dose. Rows are unselected; 2.1% or so of the library scored in one or more.

Molecule	TRPML1 inh	ClpP mod	TRPML1 agonist	Menin MLL FP FL	gsp antagonist	gsp ag
OCCC1CN(Cc2ccc(Oc3ncccn3)cc2)CCN1C1CCCC1 (configuration not stated)	-14.4	-2.6%	1.4	3.0	11.6%	-56.2%[inhibitor]
O=C(O)C1CCN(S(=O)(=O)c2ccc(N3CCOCC3)c([N+](=O)[O-])c2)CC1	-17.1	·	1.4	0.7	5.8%	?
COc1ccc(OC)c(C2Nc3c(Cl)ccc(C(=O)O)c3C3C=CCC32)c1 (configuration not stated)	-12.5	·	-1.2	7.5	-7.5%	-13.4%[15.4 µM]
CCOC(=O)C1CCN(C(=O)COc2ccc(S(=O)(=O)N3CCOCC3)cc2)CC1	6.1	0.6%	-0.3	·	8.4%	-13.5%[15.4 µM]
CCN(CC)C(=O)Cn1nnc(-c2ccc(S(C)(=O)=O)cc2)n1	-11.9	-5.8%	-0.2	1.7	8.7%	1.1%
OC(COc1ccccc1)CN(Cc1ccccc1)CC(O)COc1ccccc1 (configuration not stated)	2.3	?	0.4	·	3.2%	·
CNC(=S)N/N=C/c1ccc(-c2cccc(C(=O)O)c2)o1	-3.0	·	-0.8	3.5	-15.9%	-3.7%[15.4 µM]
COc1ccc(C(=O)NN(C)c2nc(-c3ccccc3)cc(C)c2S(C)(=O)=O)cc1	13.5	15.4%	0.6	2.1	-10.2%	11.5%
OCCCc1nc2n(n1)C(c1ccccc1Cl)C=C(c1cccs1)N2 (configuration not stated)	17.7	22.4µM*	9.9	?	0.3%	?
O=C(CCCCCC(=O)N(CCO)CCO)N(CCO)CCO	-8.8	?	-0.3	2.7	11.3%	-18.0%
COC(=O)CN1C(=O)N/C(=C/c2ccc(C)o2)C1=O	15.1	·	1.6	7.7	-16.3%	-0.1%[15.4 µM]
Cc1c(/C=N/N=C2\CCC3C4CCc5cc(O)ccc5C4CCC23C)cnn1C (configuration not stated)	-21.5	-1.3%	0.5	10.2	6.6%[15.4 µM]	3.1%
Cc1csc(NC(=O)C2CSC3(C)CCC(=O)N23)n1 (configuration not stated)	14.2	-0.2%	-0.5	·	5.2%	?
CC1CCN(S(=O)(=O)c2ccc(NC(=S)NC(=O)c3ccc(Cl)cc3)cc2)CC1	-17.6	3.2%	-0.3	2.0	9.1%	?
O=C(CSc1nc2nn(-c3ccccc3)c(=O)c-2c2n1CCCCC2)Nc1ccccc1[N+](=O)[O-]	-12.8	0.3%	0.3	·	-18.6%	10.5%[15.4 µM]
COC(=O)c1sc(SC)c(S(=O)(=O)C(C)C)c1N	4.0	0.9%	0.6	3.1	1.3%	-26.4%
COc1ccc(C2(c3ccc(OC(C)=O)cc3OC(C)=O)CC(c3ccccc3)NC(=S)N2)cc1 (configuration not stated)	-9.0	3.3%	0.6	-0.8	-6.4%	?
Cc1cc(C)c2ccc(NN)nc2c1O	8.9	-3.8%	2.4	4.5	2.2%	6.0%
COc1cc(C2OC(c3cc(OC)c(OC)c(OC)c3)C(C)C2C)cc(OC)c1OC (configuration not stated)	·	-1.6%	·	-0.9	0.7%	·
O=C(NCCCc1ccccc1)C1CCN(C(=O)N2CCOc3ccc(Cl)cc32)CC1	13.7	-3.7%	0.7	·	·	·
O=C(Nc1sc2c(c1C(=O)c1ccccc1)CCCC2)c1cccnc1	-12.8	-0.3%	1.9	0.9	-5.9%	-27.5%
O=C(NC1CCCCC1)C(c1ccc(F)cc1)N(CCc1ccccc1)C(=O)CN1C(=O)c2ccccc2S1(=O)=O (configuration not stated)	6.0	1.9%	1.3	-1.2	6.9%	-17.0%
O=C(CSc1nc2cc3ccccc3cc2[nH]1)Nc1cccc(C(F)(F)F)c1	-7.5	7.6%	-0.3	·	·	·
O=C(NCc1ccc(F)cc1)c1ccc(CS(=O)(=O)c2ccc(Cl)cc2)o1	-9.9	-0.3%	1.2	·	·	·
CCOc1ccc2c(c1)s/c(=N\S(=O)(=O)c1ccc(OC)cc1)n2C(F)F	-2.1	0.0%	-0.5	0.5	4.7%	5.7%
Cc1ccc(-c2nc(N/N=C/c3cccc([N+](=O)[O-])c3)c3ccccc3n2)cc1	6.0	1.2%	-0.3	-4.4	-5.7%	5.3%
CCOC(=O)Cn1c(=NC(=O)CN2C(=O)CCC2=O)sc2cc(S(N)(=O)=O)ccc21	4.1	?	0.3	2.0	6.9%	-18.5%[15.4 µM]
CCCCOC(=O)Nc1ccc2c(C)cc(=O)oc2c1	-3.4	?	0.4	2.3	18.1%	2.5%
CC(C)CCNC(=O)[C@@H](c1ccccc1)N1Cc2ccccc2C1=O	-23.7	-3.5%	0.8	·	·	·
Cn1c(O)c(C2=c3ccccc3=NC2=O)sc1=Nc1ccc(Cl)cc1	3.1	0.3%	1.1	-1.3	-5.1%	-7.9%
Nc1ccn(C2CC(O)C(CO)O2)c(=O)n1 (configuration not stated)	36.3	1.1%	-0.1	-5.8	-2.1%	·
COc1ccc(Cl)cc1NC(=O)CN(C)C(=O)c1ccc(N2CCCCCC2)c([N+](=O)[O-])c1	-22.8	-1.3%	-0.5	·	-17.7%	5.2%
Cc1ccc(OCCOCCOc2cccc3cccnc23)c(Br)c1	29.0	-16.7%	3.5	0.8	-27.9%	-6.7%
CC(C)CNC(=O)C1(C)CCCN1C(=O)c1ccc2c(c1)CCO2 (configuration not stated)	49.2	-3.5%	-0.9	·	·	·
Cc1ccc(NC(=O)C2CSC3(C)CCC(=O)N23)cc1S(=O)(=O)N1CCOCC1 (configuration not stated)	2.7	-0.5%	0.0	·	4.2%	-7.5%
C=CCc1cc(/C=C2/NC(=S)NC2=O)cc(OC)c1O	-9.3	-3.3%	2.1	?	7.3%	-10.3%
CCN(C[C@H]1N[C@@](C)(C(=O)OC)[C@H]2C(=O)N(C)C(=O)[C@@H]12)C(=O)c1ccc(C)cc1	-5.1	0.9%	3.5	·	13.2%	·
CC(CNC(=O)c1cc(-c2ccccc2)n[nH]1)c1ccccc1 (configuration not stated)	6.1	-3.5%	2.5	·	·	·
O=S(=O)(c1ccc(SCc2ccc(Cl)cc2)nc1)N1CCCC1	6.9	-2.6%	3.3	·	-2.5%	3.8%
O/N=C1\CC2(Cc3nonc31)OCCO2	-6.9	-2.7%	1.1	-7.0	0.9%	49.2%
CCOc1ccc(CN2CCNC(=O)C2CC(=O)NCCC2=CCCCC2)cc1 (configuration not stated)	-16.9	·	-0.4	-0.8	1.1%	-21.7%
O=C(Cc1ccccc1)c1nnc(-c2ccccc2)o1	-11.1	·	1.7	-2.6	·	2.8%[15.4 µM]
CCN(Cc1cc(=O)n2ccsc2n1)c1cccc2ccccc12	-0.2	?	1.7	5.2	-3.2%	-1.2%
O=C(CNC(=O)c1ccccc1)OCCOc1cccc(Cl)c1	9.0	1.8%	-0.9	·	-1.4%	-0.8%
O=S(=O)(c1ccc(F)cc1)N1CCCN(Cc2c(F)cccc2F)CC1	20.7	-0.6%	-1.2	0.0	-8.9%	9.2%[15.4 µM]
C=CCN(c1ccccc1OC)S(=O)(=O)c1cccc(C(=O)OC2CCOC2=O)c1 (configuration not stated)	-8.5	·	-0.5	·	-21.2%	-27.7%
CN1C(=O)c2cccc3c(N(C)C)ccc(c23)C1=O	-11.2	-3.4%	21.1	?	-14.2%	0.1%
COc1ccc(CNC(=O)C2CCN(C(=O)c3csc(Nc4ccc(C)cc4)n3)CC2)cc1	-0.7	·	-0.6	6.8	-30.4%	13.1%[15.4 µM]
O=C(CN1CCN(Cc2ccccc2F)C1=O)NCc1cccnc1	3.0	-0.6%	-0.3	1.2	9.6%	?
Cc1nn(Cc2ccccc2)c(C)c1NC(=O)c1cc(-c2ccc3c(c2)OCO3)on1	-3.4	-27.4%	1.0	-2.0	-2.0%	9.0%
Cc1ccc(CNC(=S)NCc2ccncc2)cc1	5.7	·	0.2	-6.2	·	-1.3%[15.4 µM]
C(=Cc1c[nH]c2ccccc12)c1ccc2ccccc2n1	-7.8	·	10.6	·	-15.3%	17.2%
Cc1nc(CS(=O)(=O)c2ccc(Cl)cc2)cc(Sc2ccccc2Cl)n1	11.5	-1.1%	0.0	-0.9	-14.8%[15.4 µM]	-11.9%
O=C(CSc1ccccn1)Nc1ccc2c(c1)C(=O)c1ccccc1C2=O	-9.5	0.0%	0.5	1.0	-19.1%	-9.1%
CC1=C(C(=O)N2CCOCC2)C(c2ccc(Br)cc2)NC(=S)N1c1ccccc1 (configuration not stated)	7.3	-0.1%	-0.1	2.9	-11.4%	-3.8%[15.4 µM]
CC(C)(C)NC(=O)c1ccc2nsnc2c1	-12.8	-4.6%	-0.6	1.9	2.8%	-2.6%
CCCOc1ccc(-c2nc(SCC(=O)c3ccc(Cl)cc3)n[nH]2)cc1	-8.2	-1.3%	-0.3	·	·	·
C[C@H](CO)N1C[C@H](C)[C@@H](CN(C)C(=O)c2cc(-c3ccccc3)on2)OCc2cnnn2CCCC1=O	-7.1	0.7%	-0.6	·	·	-44.8%
CCOC(=O)N1CCN(CC(O)COc2ccc(C)cc2C(C)(C)C)CC1 (configuration not stated)	-1.2	3.6%	1.3	1.5	13.7%	-42.4%[inhibitor]
Cc1ccc(OCC(=O)N(Cc2ccco2)Cc2ccco2)cc1C	6.7	1.3%	3.4	·	·	·

New compounds follow.
Molecule	TRPML1 inh	ClpP mod	TRPML1 agonist	Menin MLL FP FL	gsp antagonist	gsp ag
COc1cc(/C=C2/NC(=O)N(Cc3ccccc3F)C2=O)ccc1O	8.1	·	1.2	9.4	-11.6%	-0.8%[15.4 µM]
COC(=O)C(O)(CC(=O)Nc1cccc(SC)c1)C(F)(F)F (configuration not stated)	-4.3	0.5%	-0.5	1.7	2.8%	1.2%
CN(CCO)C(=O)C1CCN(c2ncc(C(F)(F)F)cc2Cl)CC1	13.3	·	1.2	-5.8	-1.4%	10.3%[15.4 µM]
CCOc1ccc(Nc2nc(NCCN3CCOCC3)nc(OC)n2)cc1	-0.5	-2.4%	-1.5	0.8	1.1%	0.7%
Cc1ccc(SCC(=O)OCC(=O)N(CC(C)C)c2c(N)n(Cc3ccccc3)c(=O)[nH]c2=O)cc1C	2.4	·	2.0	·	9.9%	-1.7%[15.4 µM]
CCOc1ccccc1C(=O)N[C@H](C(=O)Nc1cc(S(=O)(=O)N(C)C)ccc1OC)C(C)C	-0.1	·	-0.9	-1.6	6.1%	28.2%
CC1=[N+]([O-])C(N2CCOCC2)C(O)(c2ccccc2)C1 (configuration not stated)	13.8	-0.4%	-0.6	2.4	9.3%	-8.0%
CCOc1ccc(C(=O)Nc2ccc(-c3nc4ccccc4s3)c(C)c2)cc1OCC	-11.6	-6.1%	-0.5	·	·	·
COc1ccc2c(c1)c(C(=O)O)c(C)n2-c1ccccc1	-9.0	·	1.3	1.5	-2.1%	-1.4%[15.4 µM]
CSc1ncc(Cl)c(C(=O)N(Cc2ccccc2Cl)C2CCS(=O)(=O)C2)n1 (configuration not stated)	-1.3	0.5%	-0.1	·	·	·

Compound activity deposited in PubChem by National Center for Advancing Translational Sciences (NCATS).
